# High-throughput results: PubChem BioAssay, The Scripps Research Institute Molecular Screening Center
# LYPLA2 inh: LYPLA2 (human) inhibition in PME1 counter-screen; recombinant LYPLA2, FP-Rh probe fluorescence polarization; inhibition, % at 5.9 µM; 320,000 tested, 0.38% active;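 active = inhibition above the screen-wide mean plus 3 SD, limit set per campaign, cut at about 26% in these data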;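 also: 0% = LYPLA2 with DMSO and 100% = wells lacking LYPLA2 enzyme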
# PAFAH2 FP inh: inhibitors of human PAFAH2 | 340,000 tested, 0.99% active | Q99487 | inhibition, % at 3.39 µM | recombinant PAFAH2, FP-rhodamine activity probe, fluorescence polarization | AID 492956;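 active = inhibition above the mean over all tested compounds plus 3 SD, cut at about 30% in these data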;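 also: inhibitors block probe labeling of enzyme so polarization drops; 0% = enzyme with DMSO and 100% = wells lacking PAFAH2 protein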
# PAFAH1B3 FP inh: blocks human PAF acetylhydrolase 1B catalytic subunit 3; 340,000 tested, 0.28% active; recombinant PAFAH1B3, FP-rhodamine probe, fluorescence polarization; Q15102; inhibition, % at 3.39 µM; AID 492972;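 active = inhibition above the screen-wide average of all tested compounds plus 3 SD, cut at about 25% in these data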;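 also: 0% = enzyme with DMSO only and 100% = wells lacking PAFAH1B3 protein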
# PAD4 inh: inhibitors of human PAD4 | Q9UM07 | recombinant PAD4, RCA probe fluorescence polarization | inhibition, % at 6.36 µM | 330,000 tested, 0.41% active | AID 485272;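 active = percent inhibition above a cutoff equal to the mean of all tested compounds plus 3 SD, cut at about 15% in these data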;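 also: 0% = PAD4 with RCA probe and DMSO and 100% = probe without PAD4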
# Target sequence (Q9UM07 whole entry, looked up): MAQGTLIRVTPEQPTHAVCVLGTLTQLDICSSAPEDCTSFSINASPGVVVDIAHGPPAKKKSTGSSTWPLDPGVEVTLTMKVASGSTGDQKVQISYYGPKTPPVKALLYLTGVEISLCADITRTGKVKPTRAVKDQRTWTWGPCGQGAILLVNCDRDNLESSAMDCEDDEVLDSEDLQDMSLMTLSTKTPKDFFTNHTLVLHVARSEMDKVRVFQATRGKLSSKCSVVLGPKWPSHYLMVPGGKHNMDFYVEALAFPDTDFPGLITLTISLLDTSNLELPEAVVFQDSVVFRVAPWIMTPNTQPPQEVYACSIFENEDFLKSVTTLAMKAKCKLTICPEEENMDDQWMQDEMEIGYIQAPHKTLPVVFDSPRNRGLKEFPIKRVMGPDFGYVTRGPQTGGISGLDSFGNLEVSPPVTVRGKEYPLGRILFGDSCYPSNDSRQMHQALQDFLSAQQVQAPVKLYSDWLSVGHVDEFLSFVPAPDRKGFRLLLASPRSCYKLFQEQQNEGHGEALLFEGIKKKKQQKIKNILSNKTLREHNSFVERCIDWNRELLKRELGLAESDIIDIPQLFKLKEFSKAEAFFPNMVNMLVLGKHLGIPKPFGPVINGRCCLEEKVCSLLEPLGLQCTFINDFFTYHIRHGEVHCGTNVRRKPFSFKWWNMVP
# EBNA-1 inhibitor: blocks EBNA-1 binding to DNA | 300,000 tested, 0.34% active | inhibition, % at 14.8 µM | EBNA-1 DNA binding, fluorescence polarization; in the data active = inhibition above about 28%
# LYPLA1 counter: counter-screen for PME1 inhibitors: inhibitors of human LYPLA1. O75608. recombinant LYPLA1, FP-Rh probe fluorescence polarization. inhibition, % at 5.9 µM. 320,000 tested, 0.16% active;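 active = inhibition above the mean of all tested compounds plus 3 SD, set per campaign, cut at about 14% in these data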;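 also: inhibitors block serine hydrolase probe labeling of LYPLA1 so polarization falls; 0% = enzyme with DMSO and 100% = wells lacking LYPLA1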
# ZTA counter: ZTA (EBV) inhibition in EBNA-1 counter-screen | ZTA-DNA binding, fluorescence polarization | inhibition, % at 11 µM | 320,000 tested, 0.15% active; in the data active = inhibition above about 33%
# Target sequence (P03206 whole entry, looked up): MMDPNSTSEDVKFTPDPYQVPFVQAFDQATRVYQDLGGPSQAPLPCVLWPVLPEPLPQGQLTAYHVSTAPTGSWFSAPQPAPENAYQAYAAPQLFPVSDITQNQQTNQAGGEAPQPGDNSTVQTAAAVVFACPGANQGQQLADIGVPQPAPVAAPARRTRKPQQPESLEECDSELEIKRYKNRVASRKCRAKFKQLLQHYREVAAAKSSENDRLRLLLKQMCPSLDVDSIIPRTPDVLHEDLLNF
# An asterisk follows results filed as active.
# Keys – A = LYPLA2 inh; B = PAFAH2 FP inh; C = PAFAH1B3 FP inh; D = PAD4 inh; E = EBNA-1 inhibitor; F = LYPLA1 counter; G = ZTA counter
CC(C)=CCCC(C)CN1CCC(N2CCC(C(=O)NC(C)C)CC2)CC1 (configuration not stated)
  A: 0 | B: -1 | C: 4 | D: 1 | E: -5 | F: 0 | G: 5

Cc1nnc(SCC(=O)Nc2ccc3c4c(cccc24)CC3)n1C
  A: -2 | B: 11 | C: 9 | D: -1 | E: -2 | F: 1 | G: 1

O=C(O)c1cccc(NS(=O)(=O)c2cccc3cccnc23)c1
  A: -8 | B: 4 | C: 2 | D: 2 | E: 4 | F: -6 | G: -9

C=CCn1c(SCC(=O)Nc2cccnc2Cl)nnc1-c1ccccc1F
  A: -1 | B: -10 | C: 3 | D: -2 | E: 0 | F: -3 | G: -13

COc1ccc(-c2cc(CNC(=O)CN3CCN(C)CC3)on2)cc1
  A: 4 | B: 1 | C: 0 | D: -3 | E: -5 | F: 0 | G: 4

Cc1ccc(S(=O)(=O)NC2(C(F)(F)F)C(=O)Nc3c2c(=O)[nH]c(=O)n3-c2ccccc2)cc1 (configuration not stated)
  A: -6 | B: -2 | C: 9 | D: -2 | E: 4 | F: -2 | G: -2

CCCOc1ccc(N/C=C/C(=O)C(C)(C)C)cc1
  A: 7 | B: 5 | C: -6 | D: -9 | E: -10 | F: 7 | G: -6

COc1ccc(Nc2nc(CC(C)=O)ns2)cc1OC
  A: 5 | B: 1 | C: 7 | D: 4 | E: -7 | F: 3 | G: -15

Cc1nc2cc(F)ccc2n1C1CCN(C(=O)c2c(F)cccc2F)CC1
  A: 1 | B: 7 | C: 4 | D: 4 | E: -4 | F: 2 | G: -10

O=C(O)c1ccc(NS(=O)(=O)c2ccc3c(c2)OCCO3)cc1
  A: -7 | B: -3 | C: 9 | D: -2 | E: -9 | F: 0 | G: 10

C=CCN1CCN(C(=O)c2ccc3c(c2)OCO3)CC1
  A: 4 | B: 5 | C: 8 | D: 2 | E: -11 | F: -1 | G: -16

Cc1cc(C)c(S(=O)(=O)n2cc(C(C)C(N)C(=O)O)c3ccccc32)c(C)c1 (configuration not stated)
  A: 1 | B: 7 | C: 8 | D: 1 | E: -4 | F: 0 | G: 12

O=c1c2ccccc2n(Cc2ccc(Cl)cc2)c(=O)n1Cc1ccco1
  A: -9 | B: 3 | C: -4 | D: -9 | E: -11 | F: -9 | G: -11

CCOC(=O)c1ccc(NNC(=O)CC)c([N+](=O)[O-])c1
  A: 5 | B: -2 | C: 2 | D: 2 | E: 2 | F: -1 | G: -1

CCN(CC)C(=O)CSc1nnc(-c2cc3ccccc3cc2O)n1CC
  A: -3 | B: 10 | C: 11 | D: -4 | E: 0 | F: 2 | G: -2

O=C(COc1ccc(S(=O)(=O)NCc2ccccc2)cc1Cl)N1CCOCC1
  A: 1 | B: 4 | C: 3 | D: 0 | E: 1 | F: -1 | G: -6

COc1cc(OC)cc(C(=O)N2CCC(n3c(C)nc4cc(F)ccc43)CC2)c1
  A: 5 | B: -5 | C: 5 | D: 1 | E: 4 | F: -2 | G: -13

Cc1cc(C)c(C(=O)N2CCCC(CNC(=O)C3(c4ccc(Cl)cc4)CC3)C2)c(=O)[nH]1 (configuration not stated)
  A: 2 | B: 5 | C: -4 | D: -3 | E: -9 | F: -3 | G: -8

CC(C)NC(=O)C1CCN(C2CCN(CC3CC=CCC3)CC2)CC1 (configuration not stated)
  A: -2 | B: 5 | C: 1 | D: -7 | E: 0 | F: -1 | G: -11

O=C(Cc1cccs1)NC(c1ccccc1)c1ccccc1
  A: 1 | B: 2 | C: 4 | D: -5 | E: 3 | F: 2 | G: -26

# Shown with values under each structure: eleven of the compounds above
# Every second line gives: LYPLA2 inh	PAFAH2 FP inh	PAFAH1B3 FP inh	PAD4 inh	EBNA-1 inhibitor	LYPLA1 counter	ZTA counter
CCCOc1ccc(N/C=C/C(=O)C(C)(C)C)cc1
 : 7	5	-6	-9	-10	7	-6
COc1ccc(Nc2nc(CC(C)=O)ns2)cc1OC
 : 5	1	7	4	-7	3	-15
Cc1nc2cc(F)ccc2n1C1CCN(C(=O)c2c(F)cccc2F)CC1
 : 1	7	4	4	-4	2	-10
O=C(O)c1ccc(NS(=O)(=O)c2ccc3c(c2)OCCO3)cc1
 : -7	-3	9	-2	-9	0	10
C=CCN1CCN(C(=O)c2ccc3c(c2)OCO3)CC1
 : 4	5	8	2	-11	-1	-16
Cc1cc(C)c(S(=O)(=O)n2cc(C(C)C(N)C(=O)O)c3ccccc32)c(C)c1 (configuration not stated)
 : 1	7	8	1	-4	0	12
O=c1c2ccccc2n(Cc2ccc(Cl)cc2)c(=O)n1Cc1ccco1
 : -9	3	-4	-9	-11	-9	-11
CCOC(=O)c1ccc(NNC(=O)CC)c([N+](=O)[O-])c1
 : 5	-2	2	2	2	-1	-1
CCN(CC)C(=O)CSc1nnc(-c2cc3ccccc3cc2O)n1CC
 : -3	10	11	-4	0	2	-2
O=C(COc1ccc(S(=O)(=O)NCc2ccccc2)cc1Cl)N1CCOCC1
 : 1	4	3	0	1	-1	-6
COc1cc(OC)cc(C(=O)N2CCC(n3c(C)nc4cc(F)ccc43)CC2)c1
 : 5	-5	5	1	4	-2	-13

# Further structures follow.
# Keys – A = LYPLA2 inh; B = PAFAH2 FP inh; C = PAFAH1B3 FP inh; D = PAD4 inh; E = EBNA-1 inhibitor; F = LYPLA1 counter; G = ZTA counter
COC(=O)[C@H](C)NC(=O)Nc1cc(OC)ccc1OC
  A: -4 | B: 1 | C: 1 | D: 1 | E: 0 | F: 1 | G: 6

Cc1sc2ncn(CC(=O)NCCCC(=O)N3CCN(c4ccccc4)CC3)c(=O)c2c1C
  A: 6 | B: -8 | C: -5 | D: 6 | E: 2 | F: -4 | G: 21

CN(C)CCN(C(=O)C1CCCCC1)c1nc2cc3c(cc2s1)OCO3
  A: 2 | B: -6 | C: 5 | D: -1 | E: 6 | F: 2 | G: 2

CCn1c(C)nc2cc(C(=O)N/N=C(\C)c3ccc(N4CCOCC4)cc3)ccc21
  A: 3 | B: -2 | C: 8 | D: -7 | E: -13 | F: 3 | G: -3

Cn1c(=O)c2c(nc(Cl)n2Cc2ccc(Cl)c(Cl)c2)n(C)c1=O
  A: 1 | B: 3 | C: 0 | D: -5 | E: -7 | F: 1 | G: -21

CCOC(=O)C1CCN(Cc2cn[nH]c2-c2ccc(C)cc2)CC1
  A: -5 | B: -1 | C: 4 | D: -3 | E: 1 | F: -3 | G: 23

O=c1[nH]n(CC2COC3(CCCCC3)O2)c(=O)c2ccccc12 (configuration not stated)
  A: 0 | B: 4 | C: 3 | D: 4 | E: 12 | F: 3 | G: 5

COc1c(F)c(F)c(C(=O)Nc2cccc(Cl)c2N2CCOCC2)c(F)c1F
  A: 3 | B: 1 | C: -3 | D: 1 | E: -8 | F: 2 | G: -22

Cc1ccc(-c2cc(C(=O)Nc3ccc4c(c3)OCCO4)c3ccccc3n2)cc1
  A: -28 | B: -19 | C: -5 | D: -4 | E: 0 | F: -16 | G: 3

CCOC(=O)/C(=N/O)C1=NC(C)(C)Cc2cc(C)c(C)cc21
  A: 0 | B: -3 | C: -10 | D: -4 | E: -3 | F: 2 | G: 5

c1ccc2[nH]c(NC3=NCCC3)nc2c1
  A: 7 | B: -6 | C: 4 | D: -11 | E: -10 | F: 4 | G: -7

COC(=O)c1ccc2c(c1)N(Cc1nc(-c3ccc(Cl)cc3)oc1C)C(=O)C1CCCN21 (configuration not stated)
  A: 1 | B: -3 | C: 2 | D: -4 | E: 3 | F: -3 | G: 10

Cc1sc2ncn(CC(=O)NCCCC(=O)N3CCN(c4ncccn4)CC3)c(=O)c2c1C
  A: 0 | B: -2 | C: 5 | D: 2 | E: -5 | F: 2 | G: 5

Cn1c(CCNC(=O)c2ccccc2F)nnc1SCC(=O)Nc1nncs1
  A: 0 | B: 10 | C: 2 | D: -1 | E: -7 | F: 1 | G: -3

O=C(Nc1cccc(C(F)(F)F)c1)NC1CCN(S(=O)(=O)c2ccc(F)cc2)CC1
  A: -2 | B: -9 | C: 12 | D: 1 | E: 4 | F: -4 | G: 2

Cc1c(C(=O)O)sc2c1c(=O)n(Cc1ccccc1)c(=O)n2C
  A: 2 | B: -4 | C: 0 | D: 1 | E: -7 | F: -5 | G: -24

CC(C)C(=O)Nc1cccc(C(=O)NCc2ccc(S(N)(=O)=O)cc2)c1
  A: 2 | B: -9 | C: 10 | D: -2 | E: 2 | F: -1 | G: -22

Cc1cc(C)nc(Sc2nc(Nc3ccccc3)nc(Sc3nc(C)cc(C)n3)n2)n1
  A: 1 | B: 5 | C: 10 | D: -3 | E: 0 | F: 0 | G: 10

CCOC(=O)N/N=C(/C)c1ccc([N+](=O)[O-])o1
  A: -6 | B: 3 | C: 8 | D: -3 | E: 36* | F: 1 | G: -1

COC(=O)C1=NN(c2ccccc2OC)C2C(=O)N(c3ccccc3OC)C(=O)C12 (configuration not stated)
  A: 2 | B: -5 | C: -9 | D: -7 | E: 2 | F: 0 | G: 14

CCC/C(O)=C1\C(=O)CC(C)(C)CC1=Nc1cccc([N+](=O)[O-])c1
  A: -5 | B: 1 | C: -1 | D: -2 | E: 2 | F: -3 | G: 11

Cc1ccc(C)c(NC(=O)CSc2nc3c(c(=O)n2C)SC(C)C3)c1 (configuration not stated)
  A: 5 | B: -14 | C: -9 | D: -5 | E: 7 | F: 3 | G: 2

CCC(NS(=O)(=O)c1ccc2c(c1)NC(=O)C(C)C(=O)N2)c1cccs1 (configuration not stated)
  A: 7 | B: 1 | C: -4 | D: 4 | E: -1 | F: 2 | G: -5

NS(=O)(=O)c1ccc(NC(=O)CSc2nnc(COc3ccccc3Cl)n2C2CC2)cc1
  A: 11 | B: 10 | C: 9 | D: 3 | E: 0 | F: -2 | G: -7

CC(C)CCn1c(=O)c2ccccc2n2c(CN(C)Cc3ccccc3)nnc12
  A: 2 | B: 0 | C: 3 | D: 6 | E: 6 | F: 0 | G: -7

Cc1cc(NC(=O)CSc2nc3c(c(=O)n2CCc2ccccc2)SC(C)C3)no1 (configuration not stated)
  A: -9 | B: 2 | C: -2 | D: -1 | E: -4 | F: -3 | G: -1

# Entries listed so far printed as active in EBNA-1 inhibitor.
compound	PAFAH2 FP inh	PAFAH1B3 FP inh	PAD4 inh	EBNA-1 inhibitor
CCOC(=O)N/N=C(/C)c1ccc([N+](=O)[O-])o1	3	8	-3	36*

# An excerpt; the hit share may differ from the screen's.
